Screening data deposited in PubChem BioAssay by National Center for Advancing Translational Sciences (NCATS).
Bst PK mod = pyruvate kinase (B. stearothermophilus) modulation | 51,000 compounds, 1.2% hits | Potency, µM | AID 361 | partly purified Bacillus stearothermophilus pyruvate kinase, luminescence ATP production; ribose 5-phosphate activator present at AC10; in the data active means potency below about 11 µM; inconclusive means mostly about 12 µM to 25 µM; inactive means weaker than that;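 the screen sought inhibitors and activators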;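 also: potency is read from the fitted curve at half-maximal effect; scaled between full activation by ribose 5 phosphate and full inhibition by luteolin; about four in five hits inhibit and the cells do not say which; series up to 57 µM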
YjeE inh = YjeE (TsaE) inhibition, E. coli | P0AF67 | purified YjeE, fluorescence polarisation of a bound ADP probe | Potency, µM | 71,000 compounds, 0.05% hits | AID 605; active = well fitted falling curve; inconclusive = weaker or top-dose-only fall, or a rising curve; inactive = flat or poorly fitted curve;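 also: top concentration of the series not given in the record; excess ADP was the control for the full effect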
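Purified YjeE (10 uM) with BODIPY Texas Red-labeled ADP probe (2 uM); compounds pin-transferred, 15 min at room temperature. Binding inhibition read as decreased fluorescence polarization; ADP titration as control.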
Starred values were filed as active, the others as inactive; i = inactive; ? = inconclusive; nt = no result given.

Every second line gives: Bst PK mod	YjeE inh
- O=C(OCc1c(F)cccc1Cl)c1cnccn1
  nt	i
- COc1ccc(N(C)S(=O)(=O)c2c(C)[nH]c(=O)[nH]c2=O)cc1
  >57	i
- O=C(c1cc2c(s1)-c1ccccc1OC2)N1CCCC1
  nt	i
- COc1ccc(Cl)cc1-c1nc(-c2ccc(NC(=O)c3ccncc3)cc2)no1
  >57	i
- CCOC(=O)Cc1csc(NC(=O)c2csc(C)c2)n1
  nt	i
- O=P(O)(CCc1ccccc1)CN1CCCCC1
  nt	i
- O=C1[C@@H]2[C@H](Cc3ccc(O)cc3)N[C@]3(C(=O)Nc4ccccc43)[C@@H]2C(=O)N1c1ccc(F)cc1
  >57	i
- O=C(c1ccccc1)C(O)c1ccccc1 (configuration not stated)
  nt	i
- Cc1cccc2cc(CN(Cc3cccs3)C3(c4nnnn4C4CCCC4)CCCC3)c(=O)[nH]c12
  >57	i
- CN(CC(=O)N1CCN(c2ccccc2)CC1)S(=O)(=O)c1cnc[nH]1
  >57	i
- CN(C)CCCn1c(N)c(C#N)c2nc(C#N)c(C#N)nc21
  >57	i
- CC(=O)c1c(C)[nH]c(C(=O)OCCCCN2C(=O)c3ccccc3C2=O)c1C
  >57	i
- Nc1cc([N+](=O)[O-])ccc1C(=O)O
  nt	i
- CCc1ccc(C2CC(c3cccc(Cl)c3)n3nc(N)nc3N2)cc1 (configuration not stated)
  nt	i
- Brc1c(CSc2nnc(-c3ccco3)o2)nc2ccccn12
  nt	i

Brought forward from above: 7 entries, then new ones.
Every second line gives: Bst PK mod	YjeE inh
- Cc1cccc2cc(CN(Cc3cccs3)C3(c4nnnn4C4CCCC4)CCCC3)c(=O)[nH]c12
  >57	i
- CN(CC(=O)N1CCN(c2ccccc2)CC1)S(=O)(=O)c1cnc[nH]1
  >57	i
- CN(C)CCCn1c(N)c(C#N)c2nc(C#N)c(C#N)nc21
  >57	i
- CC(=O)c1c(C)[nH]c(C(=O)OCCCCN2C(=O)c3ccccc3C2=O)c1C
  >57	i
- Nc1cc([N+](=O)[O-])ccc1C(=O)O
  nt	i
- CCc1ccc(C2CC(c3cccc(Cl)c3)n3nc(N)nc3N2)cc1 (configuration not stated)
  nt	i
- Brc1c(CSc2nnc(-c3ccco3)o2)nc2ccccn12
  nt	i
- C/C(=C\C(=O)c1ccc(F)cc1)Nc1ccc(N2CCOCC2)cc1
  >57	i
- COc1ccc(-c2nc3cnc(N4CCNCC4)nc3n(Cc3cccc(OC)c3)c2=O)cc1
  nt	i
- COc1cccc(-n2ccnc2SCC(=O)Nc2ccccc2)c1
  >57	i
- CCOC(=O)C1CCCN(C(=O)Cc2c(F)cccc2Cl)C1 (configuration not stated)
  >57	i
- C[C@]12C=CC(=O)C=C1CC[C@H]1[C@@H]3C[C@@H](O)[C@](O)(C(=O)CO)[C@@]3(C)C[C@H](O)[C@@]12F
  >11.4	nt
- Cc1ccc(S(=O)(=O)N2CCN(C(=O)N(C)C)CC2)cc1C
  ?	i
- O=C(Nc1ccccc1)C1=C(O)CC(c2ccco2)CC1=Nc1ccccc1 (configuration not stated)
  >57	i
- Cc1ccc(/C(=C/CN2CCCC2)c2ccccn2)cc1
  nt	i
- O=C(COc1ccccc1Cl)N(Cc1ccco1)C1CCS(=O)(=O)C1 (configuration not stated)
  >57	i
- Cc1nnc(SCCn2c(N(C)Cc3ccccc3)nc3c2c(=O)n(C)c(=O)n3C)s1
  >57	i
- COc1ccc(OC)c(N/C=C2/CCCCC2=O)c1
  nt	i
- N#C/C(=C(/O)COC(=O)CCCNC(=O)c1ccc(Cl)cc1)c1nc2ccccc2[nH]1
  >57	i
- COc1ccc(Cn2nnnc2CN2CCOCC2)cc1
  >57	i
- COC(=O)C(Cc1ccccc1)NC(=O)CSc1nc(N)cc(=O)[nH]1 (configuration not stated)
  >57	i
- Cc1cc(C)cc(N2CC(C(=O)O)CC2=O)c1 (configuration not stated)
  >57	i
- Cc1ccc(C)c(Cn2c(CO)nc3ccccc32)c1
  >57	i
- Cc1ncc(CO)c2cc(C(N)=O)c(=Nc3ccccc3)oc12
  i	i
- Cn1nnnc1SCC(=O)Nc1ccccc1Cc1ccccc1
  >57	i
- CC(C)N(Cc1nc(-c2ccccc2)no1)C(=O)Cc1ccccc1
  nt	i
- CCCCSCCCNC(=O)CS(=O)Cc1nc(-c2cccc(C)c2)oc1C (configuration not stated)
  >57	i
- Cc1ccccc1-n1c(Cn2c(=O)sc3ccccc32)nnc1SCC(=O)NCC1CCCO1 (configuration not stated)
  nt	i
- O=C(CC1Oc2ccccc2NC1=O)NC1CC1 (configuration not stated)
  nt	i
- Nc1nonc1-n1nnc(C(=O)c2ccccc2)c1-c1ccccc1
  >57	i
- CC1(C)NC(C)(C)c2nonc2/C1=N\O
  nt	i
- Cc1sc2nc(SCC(=O)NCCO)n(C)c(=O)c2c1C
  nt	i
- CC1CCN(C(=O)C2CCN(S(=O)(=O)c3cnc[nH]3)CC2)CC1
  >57	i
- Cc1cc(C)nc(Nc2ccc(N3CCOCC3)cc2)n1
  nt	i
- CC1CCC(C(=O)O)([C@H](Br)C(=O)O)CC1 (some centres not stated)
  nt	i
- COC(=O)C(NC=O)C(O)(Cc1ccccc1)C(F)(F)F (configuration not stated)
  >57	i
- COC(=O)c1ccc(OC(=O)C2CC(=O)N(c3cccc(C)c3)C2)cc1 (configuration not stated)
  >57	i
- COC(=O)C1(C)NC(c2ccco2)C2C(=O)N(c3ccc(C)cc3)C(=O)C21 (configuration not stated)
  >57	i
- C[C@H](NC(=O)OC(C)(C)C)c1nnc(SCC(=O)Nc2ccc(Br)cc2)o1
  >57	i
- COc1ccc(NC(=O)N2CCC3(CC2)CCN(S(C)(=O)=O)CC3)cc1
  nt	i
- Cc1ccccc1SCC(=O)NC1CCOC1=O (configuration not stated)
  ?	i
- CCCC(C)C(=O)Nc1ccc(C(N)=O)cc1 (configuration not stated)
  nt	i
- COc1ccc(Br)cc1-c1noc(-c2ccncc2)n1
  >57	i
- O=c1cc(-c2ccc(O)c(O)c2)oc2cccc(O)c12
  nt	i
- COc1ccc2c(c1)NC1(O)c3ccccc3C(=O)C21O (configuration not stated)
  >57	i
- CCOC(=O)c1c(NC(=O)CSc2nc3c(c(=O)n(C)c(=O)n3C)n2C(C)C)sc(C)c1C
  >57	i
- O=C(CSc1nnc(NC(=O)C2CCC2)s1)Nc1ccc(N2CCOCC2)cc1
  >57	i
- CC(NC(=O)c1ccc(NS(C)(=O)=O)cc1)c1ccccc1 (configuration not stated)
  >57	i
- O=C(NCc1ccccn1)c1cnc2sccn2c1=O
  >57	i
- c1cnn(-c2nc(N3CCOCC3)nc(N3CCOCC3)n2)c1
  nt	i
- Cc1cccc(N2C(N)=C(C#N)C(C#N)(C#N)C2c2ccccc2)c1 (configuration not stated)
  >57	i
- O=C(NCCCN1CCCC1=O)c1ccc2c(c1)ncn2C1CCCCC1
  nt	i
- Cn1cnnc1SCC(=O)NC(=O)NC1CCCC1
  >57	i
- Cc1ccc2[nH]c(=O)c(CN(CC3CCCO3)C(=O)c3ccco3)cc2c1 (configuration not stated)
  >57	i
- Nc1nnc(SCc2cc3c(cc2Cl)OCO3)s1
  >57	i
- CN(C)CCOC(=O)Cc1ccc(Cl)cc1
  >25.6	nt
- COc1ccccc1NC(=O)N1CCN(c2ccccc2F)CC1
  >57	i
- Cc1c(N)c(=O)n(-c2ccccc2)n1C
  nt	i
- O=C(CCSCCC(=O)NCc1ccco1)NCc1ccco1
  nt	i
- Cc1cc(C)c(C)c(OCC(=O)NCc2nc(-c3ccccc3)no2)c1
  >57	i
- O=C(NC1CC1)c1c[nH]c2ccc(S(=O)(=O)Nc3cccc(C(F)(F)F)c3)cc2c1=O
  >57	i
- CCc1nnc(NC(=O)C2CCN(c3nc(C)cc(C)n3)CC2)s1
  >57	i
- O=C(NCCC1=CCCCC1)C1CCN(S(=O)(=O)c2cnc[nH]2)CC1
  >57	i
- COc1ccc(N2CC(O)=C(c3nc4ccccc4s3)C2=N)cc1
  nt	i
- Cc1occc1C(=O)N1CCN(C(c2ccccc2)c2ccccc2)CC1
  >57	i
- Cc1c(C(=O)N2CCN(c3ccc(C(F)(F)F)cn3)CC2)oc2ccccc12
  >57	i
- COc1ccc(OC)c(N2Cc3cc(C)c(C)cc3C2)c1
  >57	i

Continuation:
Every second line gives: Bst PK mod	YjeE inh
- O=S(=O)(c1ccccc1)N1CCC2(CC1)CN(Cc1nccs1)C2
  nt	i
- O=C(NCc1ccccc1)c1ccc2c(c1)OCCO2
  nt	i
- CCOC(=O)[C@@]12C[C@@H]1/C(=N/O)c1ccccc1O2
  nt	i
- COCCCNC(=O)c1ccc(NS(C)(=O)=O)cc1
  >57	i
- Cc1cnc(C(=O)Nc2ccccc2C(=O)N2CCOCC2)cn1
  >57	i
- O=C(NCC1CCCO1)c1ccc(NC(=O)C2CC=CCC2C(=O)O)cc1 (configuration not stated)
  >57	i
- Cc1ccc(SCc2cn3c(C)csc3n2)cc1
  nt	i
- NC(=O)c1ccc(-c2ncc(-c3ccccc3)o2)cc1
  3.95*	i
- CC1CC(NC(=O)CCn2c(=O)oc3ccccc32)CC(C)(C)C1 (configuration not stated)
  nt	i
- COc1ccc(-c2nn(C)c(=O)c3ccccc23)cc1CNC(=O)c1ccco1
  >57	i
- COC(=O)NC1(C(F)(F)F)C(=O)NC(C)=C1C(=O)OC (configuration not stated)
  >57	i
- Nc1nc(-c2ccco2)cs1
  >57	i
- CN(C)c1nc(Oc2ccc(=O)[nH]n2)nc(N2CCCCC2)n1
  >57	i
- Cc1ccc(C2SCC(=O)N2Cc2cn3ccsc3n2)o1 (configuration not stated)
  >57	i
- Cc1ccc(S(=O)(=O)NCCN2CCOCC2)cc1C
  >11.4	i

Following part:
smiles,Bst PK mod,YjeE inh
COC(=O)C1=C(C)C(c2cccs2)NC(=O)N1C (configuration not stated),>57,i
CCN(CC)CCCNC(=O)C1CCC(=O)N(c2ccc(OC)cc2)C1c1ccc(F)cc1 (configuration not stated),>57,i
O=C(O)CC1(c2ccccc2)C(=O)c2ccccc2C1=O,>57,i
Cc1ccccc1-c1nc(CS(=O)CC(=O)NCCN2CCN(Cc3ccccc3)CC2)c(C)o1 (configuration not stated),>57,i
FC(F)(F)c1cc(CN2CC[C@@]3(CCCNC3)C2)cc(C(F)(F)F)c1,nt,i
CC(=O)c1c(C)[nH]c(C(=O)NC2CCCCC2)c1C,>57,i
Cc1ccccc1NC(=O)NCCN1C(=O)C2C3C=CC(C3)C2C1=O (configuration not stated),nt,i
Cc1cc(NC(=O)Cn2c(=O)c3c(ncn3CC(C)C)n(Cc3ccccc3)c2=O)no1,>57,i
Cc1cc(N2CCC(C(=O)N3CCN(c4cccc(C)c4C)CC3)CC2)n2ncnc2n1,>57,i
Cc1ccn2cc(CNS(=O)(=O)c3ccc4c(c3)OCCO4)nc2c1,nt,i
Cc1ccc(OCC(=O)NCc2ccccn2)c(Br)c1,nt,i
C=CCn1c(SCc2nc(N)nc(N3CCCCC3)n2)nnc1-c1ccco1,>57,i
COc1cc(S(=O)(=O)N2CCN(c3ccccc3F)CC2)c(OC)cc1Cl,>57,i
CCC(=O)Oc1ccc(C/C(=N\O)c2ccc(O)cc2O)o1,>57,i
Cc1noc(C)c1C(=O)N1CCC2(CCCN(Cc3ccccc3)C2)CC1,nt,i
O=C1c2ccccc2C(Nc2ccc3c(c2)OCCO3)N1Cc1ccco1 (configuration not stated),nt,i
CC(Sc1nnnn1C)C(=O)Nc1ccc(N2CCOCC2)cc1 (configuration not stated),>57,i
COc1ccc(NC(=O)C2CCN(S(=O)(=O)c3cccc4cccnc34)CC2)cc1OC,nt,i
CCCOc1cc(CN2CCCCC2)cc(C(C)=O)c1,>25.6,nt
CC(=O)Nc1nc(C=C(Cl)Cl)cs1,nt,i

Some of the entries so far, with the structure last.
Bst PK mod,YjeE inh,Structure
nt,i,FC(F)(F)c1cc(CN2CC[C@@]3(CCCNC3)C2)cc(C(F)(F)F)c1
>57,i,CC(=O)c1c(C)[nH]c(C(=O)NC2CCCCC2)c1C

Later entries:
smiles,Bst PK mod,YjeE inh
COc1ccc(-c2csc(N(CC3CCCO3)C(=O)c3ccco3)n2)cc1 (configuration not stated),nt,i
CCOC(=O)C1=C(C)OC(N)=C(C(=O)OCC)C1c1cccnc1 (configuration not stated),>57,i
Cc1cccc2nc(CSCc3ccco3)cn12,nt,i
O=C(Nc1ccc2c(c1)OCCO2)c1ccc(NC(=O)C2CCCO2)cc1 (configuration not stated),nt,i
C=CCN(c1ccc(C(=O)N2CCCC2)cc1)S(C)(=O)=O,>57,i
O=C(Oc1ccccc1OC(=O)N1CCOCC1)N1CCOCC1,>57,i
COc1cc(C)nc(OCCNC(=O)COc2ccc(Cl)cc2Cl)n1,>57,i
CN(CCOC(=O)c1ccc2c(c1)OCCO2)Cc1ccccc1,>25.6,nt
CN1CCN(Cc2cc(=O)oc3ccc(Cl)cc23)CC1,>57,i
CC(C)C(=O)Nc1cccc(C(=O)Nc2nccs2)c1,>57,i
Cc1ccc(-n2ncc3c(N4CCN(c5ccccc5)CC4)ncnc32)c(C)c1,>25.6,nt
NC(N)=N/N=C\c1ccc(C2CCNCC2)cc1,nt,i
O=C(O)c1ccc2c(c1)C(=O)N(c1cc(C(=O)O)ccc1Br)C2=O,>57,i
Cn1nnc2cc(C(=O)NC3CCCCC3)ccc21,>57,i
CCCCNC(=O)CSc1cc(=O)n(C)c2ccccc12,>57,i
O=C(C1CCCN(S(=O)(=O)c2cnc[nH]2)C1)N1CC(=O)N(CCc2ccccc2)C(=O)C1 (configuration not stated),nt,i

Not all compounds are listed, so the mix of outcomes need not match the whole.
